# Six1-Eya2 inh = qHTS Assay for Inhibitors of the Six1/Eya2 Interaction | AlphaScreen GST-Six1/His-Eya2 binding, biochemical; stronger effect = lower value; control for the full effect not named in the record | AID 651725, 2012 | 360,000 compounds, 0.56% hits | activity change, % (no concentration beside the values) | Homeobox protein SIX1 (Homo sapiens) + Protein phosphatase EYA2 (Homo sapiens), …; in the data active = activity change below about -65%; inconclusive = about -30% to -65%; inactive = above about -30%; note: % is set by controls: 0 for no effect and ±100 for the full control effect
#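 Compounds are tested against tagged Six1 and Eya2 proteins bridged by glutathione donor and nickel acceptor beads; after a one-hour incubation at 37 °C without light, AlphaScreen emission is recorded.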
# CtBP-E1A blk = qHTS Assay for Inhibitors of the CtBP/E1A Interaction; 340,000 compounds, 0.49% hits; activity change, % (test concentration not listed); AlphaScreen GST-E1A/His-CtBP binding, 1536-well; stronger effect = lower value; control for the full effect not named in the record; in the data active means activity change below about -65%; inconclusive means about -30% to -65%; inactive means above about -30%; note: % is set by controls: 0 for no effect and ±100 for the full control effect
#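 GST-E1A and His-tagged CtBP (125 nM each as 5X stock) were preincubated with pin-transferred compound for 2 h at 37 °C in the dark, then glutathione donor and nickel acceptor beads were added for 1 h before AlphaScreen reading.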
# D2 ag = Beta-Arrestin HTS for Positive Allosteric Modulators of the Human D2 Dopamine Receptor: Agonists. D(2) dopamine receptor (Homo sapiens), P14416. DiscoveRx PathHunter D2 beta-arrestin, luminescence, 90 min; 100% = 57 uM dopamine signal. activation, % (no concentration beside the values). 360,000 compounds, 0.084% hits. AID 624465, 2012; in the data active = activation above about 40%; inconclusive = about 15% to 40%; inactive = below about 15%; note: compound concentration not given in the record; the text of the record calls up to 30% inactive
# Target sequence (P14416 whole entry, looked up): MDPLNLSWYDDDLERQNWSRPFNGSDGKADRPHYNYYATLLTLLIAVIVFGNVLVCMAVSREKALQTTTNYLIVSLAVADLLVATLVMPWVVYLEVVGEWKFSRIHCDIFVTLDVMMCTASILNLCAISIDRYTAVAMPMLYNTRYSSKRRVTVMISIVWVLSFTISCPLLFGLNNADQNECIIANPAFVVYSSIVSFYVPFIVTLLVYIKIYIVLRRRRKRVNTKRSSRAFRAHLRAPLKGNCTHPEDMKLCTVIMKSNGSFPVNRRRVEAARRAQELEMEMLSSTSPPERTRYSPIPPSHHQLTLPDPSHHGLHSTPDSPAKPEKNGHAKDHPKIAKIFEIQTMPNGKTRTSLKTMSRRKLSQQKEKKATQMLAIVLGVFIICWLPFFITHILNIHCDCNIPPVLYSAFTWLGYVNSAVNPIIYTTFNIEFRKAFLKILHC
#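 DiscoveRx PathHunter D2 beta-arrestin cells (2,100/well) attached overnight, then compound-stimulated 90 min at 37 C in HBSS/10 mM HEPES/0.1% Tween-20 buffer; beta-galactosidase complementation read by luminescence after 1 h at ambient temperature. Dopamine 57 uM final (EC100) as control.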
# TRPML1 inh = qHTS for Inhibitors of the Human Mucolipin Transient Receptor Potential 1 (TRPML1); Mucolipin-1 (Homo sapiens), Q9GZU1; TRPML1-inducible cells, Ca2+ dye fluorescence, FDSS; stronger effect = lower value; inhibition of EC80 agonist-evoked calcium signal; activity change, negative = inhibition, % (test concentration not listed); 390,000 compounds, 0.02% hits; AID 624415, 2012; in the data active means activity change below about -50%; inconclusive means about -30% to -50%; inactive means above about -30%;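 note: stimulus is agonist 54-4 at its EC80 concentration; % is set by controls: 0 for no effect and ±100 for the full control effect; compound concentration not given in the record; the text of the record puts the active cut at -80%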
# Target sequence (Q9GZU1 whole entry, looked up): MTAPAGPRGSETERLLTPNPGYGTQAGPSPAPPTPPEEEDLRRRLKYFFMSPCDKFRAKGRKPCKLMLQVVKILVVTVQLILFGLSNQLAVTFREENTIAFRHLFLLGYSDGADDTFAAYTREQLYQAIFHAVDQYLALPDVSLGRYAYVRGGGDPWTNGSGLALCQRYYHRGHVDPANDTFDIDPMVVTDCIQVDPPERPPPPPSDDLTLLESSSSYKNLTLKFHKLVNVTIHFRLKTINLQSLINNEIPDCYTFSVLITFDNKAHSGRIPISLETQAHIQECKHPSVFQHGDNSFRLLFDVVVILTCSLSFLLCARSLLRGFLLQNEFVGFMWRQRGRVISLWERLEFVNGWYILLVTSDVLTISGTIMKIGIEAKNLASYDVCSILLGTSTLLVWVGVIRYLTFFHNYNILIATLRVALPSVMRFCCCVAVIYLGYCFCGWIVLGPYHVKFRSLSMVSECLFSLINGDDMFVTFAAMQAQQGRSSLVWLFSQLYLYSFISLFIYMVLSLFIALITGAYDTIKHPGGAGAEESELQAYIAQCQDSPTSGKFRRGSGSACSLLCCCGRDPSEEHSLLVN
#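 Tet-induced TRPML1-DL cells loaded with Ca8 no-wash calcium dye were read kinetically on FDSS. Compound addition was followed by EC80 agonist 54-4 (4 uM final); inhibition was read over 110 s.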
# TRPML1 ag = qHTS for Agonists of the Human Mucolipin Transient Receptor Potential 1 (TRPML1) | Mucolipin-1 (Homo sapiens), Q9GZU1 | TRPML1-expressing cells, Ca2+ dye fluorescence, FDSS; host cell line not named in the record; reference of the full effect not given here | activation, % (concentration not given with the values) | 410,000 compounds, 0.12% hits | AID 624414, 2012; in the data active = activation above about 50%; inconclusive = about 30% to 50%; inactive = below about 30%; note: 0% is about no effect; the text of the record puts the active cut at 80%
#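 Tet-induced TRPML1-DL cells, 1,500 per well, cultured overnight, were loaded with a no-wash Ca2+ dye for 45–90 min. Calcium fluorescence was recorded on the FDSS for 110 s after compound addition, before the EC80 agonist (4 uM 54-4) was added.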
# PINK1 expr mod = A Quantitative High throughput Screen to Identify Chemical Modulators of PINK1 Expression | 410,000 compounds, 0.2% hits | PINK1 immunofluorescence, high-content cytometry, 24 h | Potency, µM (highest dose often 76.6 µM), for inactives: at the highest dose activation (PINK1 increase), hits mostly activators | AID 624263, 2012; active = well fitted activation curve with a large enough effect; inconclusive = small, poorly fitted or top-dose-only effect; inactive = flat fitted curve, though single readings scatter; cell line not stated here;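 note: potency is the fitted concentration of half-maximal effect; % of control where 0% means no effect; nearly all actives have a fitted effect of over 65% in size; a mitochondrial uncoupler was the plate control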
#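 Cells are seeded, rested 12 hours, then given compound at five concentrations or DMSO for 24 hours. After fixation, blocking and antibody staining, PINK1 amount and mitochondrial localization are scored; CCCP serves as control.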
# An asterisk follows results filed as active; u = inconclusive; x = not tested or not shown; & = joins results of further samples; [ ] = another dose, or the depositor's remark.
SMILES,Six1-Eya2 inh,CtBP-E1A blk,D2 ag,TRPML1 inh,TRPML1 ag,PINK1 expr mod
Cc1ccc(C(=O)Nc2cccc(C(=O)N3CCOCC3)c2)cc1Cl,-1.3,3.8,-3.6,-4.5,0.0,6.2%
CC(=O)NC(c1ccccc1)c1nc(-c2cccc(CO)c2)cs1 (stereo not given),0.5,0.4,-2.0,x,-0.7,0.6%
COC(=O)C1=C(C)NC(=O)NC1c1ccco1 (stereo not given),3.4,4.4,-0.2,-10.0,0.0,-1.9%
O=C(CCN1CCCCO1)N1CCCC(Nc2ccc(F)c(F)c2)C1 (stereo not given),3.1,15.0,1.1,1.3,0.1,3.3%
N#Cc1c(C(F)(F)F)cc(C2CC2)[nH]c1=O,-6.5,-0.1,-1.1,36.1,-0.8,1.3%
CC1CCCN(C(=O)c2ccc(COc3ccccc3Br)cc2)C1 (stereo not given),-4.1,7.9,0.2,6.7,0.7,24.5%
COc1cc(CC(=O)Nc2ccc3c(c2)CCC3)cc(OC)c1OC,-6.7,2.8,-0.1,7.6,1.9,0.0%
Cc1ccc(NC(=O)C2CCCN2S(=O)(=O)c2ccc3c(c2)n(C)c(=O)c(=O)n3C)cc1 (stereo not given),6.9,-8.2,3.9,-2.3&6.2,0.0&-0.4,-1.6%&-1.4%
COc1ccccc1Cn1cc(C(=O)c2ccc(C)cc2)c(=O)c2cc(F)cc(F)c21,x,x,x,-5.1,1.1,-0.8%
CN(C)c1ccc(-c2nn3c(C4CCCCC4)nnc3s2)cc1,-0.4,3.3,0.3,16.6,0.3,0.1%
OCCOCCn1c(C(CO)Nc2nc(-c3ccc(F)cc3)cs2)nc2ccccc21 (stereo not given),4.0,-10.4,1.6,2.4,-0.3,-0.2%
Cc1ccc(NC(=O)CCC(=O)NNC(=O)C(c2ccccc2)c2ccccc2)c(C)c1,-1.3,-17.4,-1.9,-9.5,-0.2,-4.1%[38.3 µM]
O=C(Nc1ccc(N2CCCC2)c(Cl)c1)c1ccccc1F,-18.3,-3.7,-3.0,43.2,-0.7,6.2%
CCc1ccc(-c2nc(CN3CCC(C(=O)N4CCN(c5ccccc5)CC4)CC3)c(C)o2)cc1,-3.8,-22.8,-1.9&-1.4,8.0,-0.1,-1.5%
Cc1cc(N(C)C)c(C#N)c(NCc2ccccc2)n1,10.5,13.9,0.3,-4.2,0.9,12.0%
COc1ccc(NCc2cc3ccc(OC)cc3n(CC(=O)Nc3ccc(C)c(C)c3)c2=O)cc1,x,x,x,-9.5,2.5,1.2%
Cc1csc(OCc2ccc(C#N)cc2)n1,9.6,5.0,-2.4,-5.8,-0.3,11.0%[38.3 µM]
COc1ccc(Cl)cc1NC(=O)C(C)NC(c1ccccc1)c1ccccc1 (stereo not given),10.7,5.0,0.0,55.3,3.4,8.5%
COc1ccccc1-c1nnc(SCC(=O)Nc2ccccc2)o1,-1.8,7.0,-1.7,10.6,-0.1,x
O=C(CSc1nc2ccccc2nc1N1CCOCC1)N1CCN(c2ccccc2)CC1,-1.3,-8.4,-0.2,2.1,1.6,-0.8%
Cc1cc(=O)[nH]c(N/N=C/c2ccccc2Cl)n1,-1.9,x,-2.3,-10.1,0.5,2.5%
CCCc1nn(C(=O)c2ccccc2)c2c1C(=O)CC(C)(C)C2,4.9,5.7,0.0,21.4,0.8,-5.8%[38.3 µM]
COC(=O)c1cc(=O)nc2sc(-c3cccs3)nn12,1.7,5.3,1.5,16.7,-0.2,u
COc1ccc(-c2noc(CN(C)C(=O)c3ccoc3C)n2)cc1,5.1,-3.1,1.8,21.7,3.2,2.0%
CC(C)(C)C(=O)Nc1ccc(C(=O)NCc2cccnc2)cc1,-1.5,6.6,-1.0,-5.6,-0.5,-2.2%
CCCOc1ccc(CN(C)c2ncnc(N)n2)cc1,1.3,-0.1,5.7,13.4,0.4,4.6%
COc1ccccc1NC(=O)CSc1nnc(-c2ccoc2C)o1,-0.7,x,1.1,-12.4,0.4,4.0%
CC(=O)c1ccc(NC(=O)C(C)OC(=O)C2CC(=O)N(c3ccc4c(c3)OCCO4)C2)cc1 (stereo not given),-1.0,3.7,-3.6,-6.4,0.2,3.2%
COc1cc(OC)cc(-c2cc3ccccc3c(=O)o2)c1,9.2,6.2,0.7,14.1,4.6,2.2%
O=C(NCc1ccc(OC(F)(F)F)cc1)C12CN(Cc3ccccc3)CC1C(c1cccc([N+](=O)[O-])c1)=NO2 (stereo not given),-7.7,-6.4,0.5,-6.7,0.0,0.6%
Cc1ccc(S(=O)(=O)Nc2cc(C)c(O)c(S(=O)(=O)c3ccc(C)cc3)c2)cc1,-11.4,-7.2,13.1,-22.1,1.7,0.2%
CCn1c(=O)c2cc(C(=O)Nc3cc(C)c(Cl)cc3OC)sc2c2ccccc21,x,x,x,-13.9,-0.7,2.2%
CNS(=O)(=O)c1cccc(C(=O)OCCCOC(=O)c2cccc(S(=O)(=O)NC)c2)c1,-3.7,-3.5,0.9,-10.3,-0.4,0.0%
COc1ccc(OC)c(N/C(C)=C/C(=O)c2ccc(C)o2)c1,-7.3,-1.3,-0.7,16.4,0.9,-1.0%
O=C(C[n+]1cc(-c2ccccc2)n2c1CCCCC2)c1ccc(Br)cc1,-0.8,-2.8,-3.2,13.4,-0.6,0.3%
COc1cc2c(c(OC)c1OC)C(c1ccc(C)cc1)CC(=O)O2 (stereo not given),19.9,0.0,2.2,-1.2,2.9,-0.1%
COC(=O)COc1c(Cl)cc(Cl)c2ccc(C)nc12,0.2,4.4,1.6,-0.6,-0.2,-0.4%
O=C1CC(N2CCN(c3ccccc3)CC2)C(=O)N1Cc1ccc(Cl)cc1 (stereo not given),-12.7,x,-1.5,3.5,0.6,2.1%
CCOC(=O)c1ccc(NC(=O)c2cc(F)c(F)cc2Cl)cc1,1.1,1.2,3.4,15.8,1.7,-1.4%
CC(C)(C)N1C(=O)c2ccc(C(=O)NCc3ccco3)cc2C1=O,-1.3,-3.5,2.6,-6.4,0.4,1.4%
CCOC(=O)Cc1nnc2c(Nc3ccccc3F)nc3nonc3n12,-5.4,0.3,-3.3,-12.4,-0.4,u
COc1ccc(O)c(CN2CCC(n3nccc3NC(=O)C3CCCC3)CC2)c1,-7.8,4.5,1.0,-7.4,-0.1,1.3%
CCOCC(=O)Nc1ccccc1C(=O)N1CCOCC1,9.6,0.0,3.0,-6.2,0.2,1.4%
O=C(NNC(=O)c1cc(Cl)ccc1O)c1ccc(NS(=O)(=O)c2cccs2)cc1,u,-21.2,5.3,25.1,0.8,-0.2%
COc1ccccc1CNC(=O)CSc1nnc2c(n1)[nH]c1ccc(F)cc12,6.0,6.7,-2.3,0.5,0.7,7.9%
CCOC(=O)C1CCCN(C(=O)c2ccc3c(c2)CCO3)CC1 (stereo not given),9.5,7.9,2.9,x,-0.3,0.0%
CN1CCN(S(=O)(=O)c2cccc(C(=O)NC3CCCc4ccccc43)c2)CC1 (stereo not given),-4.3,1.1,-1.2,20.7,2.7,-0.8%
COc1cccc(NC(=O)COC(=O)CCn2c(C)csc2=O)c1,-0.8,5.9,1.2,36.1,1.1,-1.3%
O=C1OC[C@@H]2CCCN2C(=O)[C@@H](CC(=O)N(CCO)Cc2ccccc2)C/C=C\C[C@H]1Cc1ccc(F)cc1,7.2,-1.0,0.7,-1.0,1.2,-0.4%
O=C(CNC(=O)c1ccc(Oc2ccccc2)cc1)OC1CCCCC1=O (stereo not given),0.8,0.2,1.3,7.0,-0.4,2.3%

# 2 compounds drawn at random from those above, as already listed:
SMILES,Six1-Eya2 inh,CtBP-E1A blk,D2 ag,TRPML1 inh,TRPML1 ag,PINK1 expr mod
CCn1c(=O)c2cc(C(=O)Nc3cc(C)c(Cl)cc3OC)sc2c2ccccc21,x,x,x,-13.9,-0.7,2.2%
COc1cc2c(c(OC)c1OC)C(c1ccc(C)cc1)CC(=O)O2 (stereo not given),19.9,0.0,2.2,-1.2,2.9,-0.1%

# The list goes on.
SMILES,Six1-Eya2 inh,CtBP-E1A blk,D2 ag,TRPML1 inh,TRPML1 ag,PINK1 expr mod
C[N+](C)(C)CCC(=O)N1C/C(=C/c2ccccc2)C(=O)/C(=C\c2ccccc2)C1,-3.7,5.7,-2.5,-19.8,0.4,-5.4%
Cc1cccc(OCc2nnc(SCC(=O)N3CCCCC3)o2)c1,-1.1,-1.9,-2.1,-1.1,-0.9,3.7%
CC1(C)Cc2ccccc2C2=NNC(=O)C2=N1,-5.1,-13.8,7.2,19.8,-0.7,-1.8%
CC(C(=O)O)c1cccc(C(=O)c2ccccc2)c1 (stereo not given),2.0,5.9,-6.1,-29.5,-0.8,4.5%
CCOC(=O)c1ccc(N/C=C/C(=O)c2ccc(OC)c(OC)c2)cc1,2.7,3.0,3.1,-10.6,-0.6,u
O=C1C2CCCN2c2ccc(S(=O)(=O)N3CCOCC3)cc2N1Cc1ccccc1F (stereo not given),-1.9,2.1,-1.4,8.7,-0.1,3.1%
CC(OC(=O)CCc1nc2ccccc2c(=O)[nH]1)C(=O)Nc1ccc2c(c1)OCO2 (stereo not given),-6.0,9.4,-1.8,5.3,-0.1,0.4%
C=CCn1c(N)c(C(=O)NCc2ccco2)sc1=S,-6.3,-10.0,-2.5,-5.2,0.5,-1.7%[38.3 µM]
COc1ccc(NC(=O)CNc2ccccc2N2CCCC2=O)cc1S(=O)(=O)N1CCOCC1,-4.8,7.2,3.0,22.5,1.6,-0.3%
CCN(C(=O)CSc1ncccc1C(=O)OC(C)C)c1cccc(C)c1,0.4,5.8,-3.0,16.9,0.8,3.5%[38.3 µM]
CCCc1ccc(O)c(N=Cc2cc(Br)cc(OCC)c2O)c1,-4.3,0.3,u,1.8,0.0,0.1%
COc1cccc(NC(=O)CN(C)C(=O)c2cc(-c3ccccc3)nn2-c2ccccc2)c1,-6.2,-5.5,-0.3,9.3,3.2,2.7%
CC(NC(=O)NC(=O)c1cccc(Cl)c1)c1ccccc1 (stereo not given),4.0,2.3,-3.6,18.0,1.4,-0.1%
CC1CCC(NC(=O)COC(=O)C2CC3CCCC(C2)C3=O)CC1 (stereo not given),7.4,4.0,0.2,20.9,-1.0,1.4%
CC(=O)c1cc2c(cc1NC(=O)CSc1nc3ccc(C)cc3[nH]1)OCO2,-2.1,-12.7,-5.4,17.9,0.1,0.6%
CCN1CCN(CNC(=O)c2cnccn2)CC1,8.0,-2.6,-4.3,7.3,0.0,2.8%
CC(=O)C[C@H]1c2cc(F)ccc2S(=O)(=O)N1c1ccc(N(C)C)cc1,-17.8,x,1.1,22.2,-0.3&-0.8,2.7%
Cc1nc(-c2ccc(Cl)cc2)sc1C1(C)CC(c2ccc([N+](=O)[O-])cc2)=NO1 (stereo not given),-3.2,15.5,0.5,28.1,-0.2,0.1%

# Bioassay records from PubChem BioAssay.

# An unsorted share of the library; overall some 1% were active at least once.
